# DUX4 txn inh: DUX4-mediated transcription inhibition. AID 1224904. 293T-iDUX4 ZSCAN4-Gaussia luciferase reporter, 24 h; hits give low values. activity change, negative = inhibition, % (test concentration not listed). hit rate 0.8% among 37,000;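 active = -10% or lower and over 25 points stronger than a control reporter; inconclusive = -10% or lower with a smaller gap; inactive = above -10%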;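 note: 0% = median of neutral control wells and -100% = median of positive control wells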
# DUX4 txn inh difference: also measured in DUX4 txn inh; calls as there; Gaussia minus Italica difference, %; measured here: selective DUX4 reporter inhibition;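 worked out from the two reporters; negative = selective loss of the DUX4 reporter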
# DUX4 txn inh control: second read-out of DUX4 txn inh, no call of its own (marks repeat the call); activity change, negative = inhibition, %; measured here: Italica tet-on control reporter;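 0 = neutral control and -100 = positive control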
# Starred values were filed as active, the others as inactive; ? = inconclusive; nt = no result given; & = joins results of further samples. This is a subset. The share of hits here may be higher or lower than overall.
DUX4 txn inh difference | DUX4 txn inh | DUX4 txn inh control | compound
nt | ? | nt | COc1ccccc1-c1ccc2c(c1)[C@H]1[C@H](CCN1C(=O)C1CCC1)[C@H](CO)N2
4 | 0 | -4.4 | C[C@@H](O)C#Cc1ccc([C@H]2[C@@H](CO)N3CCCCN(C(=O)c4cccc(F)c4)C[C@@H]23)cc1
-4 | -2 | 2.0 | N#C[C@H]1[C@H](c2ccc(-c3cccnc3)cc2)[C@H](CO)N1C(=O)C1CC1
-2 | 2 | 3.9 | CCC(=O)N(CC)C[C@H]1[C@H](c2ccccc2)[C@@H](CO)N1C(C)=O
16 | 10 | -5.7 | CN1CCN(C(=O)C[C@H]2CC[C@@H]3[C@H](COC[C@H](O)CN3C(=O)Cc3ccccc3)O2)CC1
7 | 6 | -1.0 | O=C(c1ccncc1)N1CC2(C1)[C@H](c1ccccc1)[C@@H](CO)N2CC1CC1
2 | 1 | -1.2 | O=C(c1ccccc1)N1CC2(C1)[C@H](c1ccccc1)[C@@H](CO)N2CC1CC1
-4 | -3 | 0.8 | C[C@@H]1CN([C@H](C)CO)C(=O)c2cc(N(C)C)ccc2O[C@@H](C)CCCCO[C@@H]1CN(C)C(=O)NC1CCCCC1
0 | -1 | -1.2 | CCCNC(=O)N(C)C[C@H]1Oc2cc(C#C[C@H](C)O)ccc2S(=O)(=O)N([C@@H](C)CO)C[C@H]1C
nt | ? | nt | CO[C@@H]1CN(C)C(=O)c2cc(NS(=O)(=O)c3ccccc3C)ccc2OC[C@@H](C)N(S(=O)(=O)c2ccccc2)C[C@H]1C
-15 | -9 | 6.7 | O=C(C[C@@H]1C[C@H]2c3cc(NC(=O)Nc4ccccc4F)ccc3O[C@H]2[C@@H](CO)O1)NCc1ccc(Oc2ccccc2)cc1
21 | 21 | 0.0 | CC(C)(O)C#Cc1ccc([C@H]2[C@H]3CN(S(C)(=O)=O)CCCCN3[C@H]2CO)cc1
-3 | -9 | -6.0 | O=C(Nc1ccc(C(F)(F)F)cc1)N[C@H]1C=C[C@H](CC(=O)N2CCCCC2)O[C@H]1CO
5 | 4 | -1.3 | O=C(c1ccncc1)N1CC2(C1)[C@@H](c1ccccc1)[C@H](CO)N2C(=O)CC1CC1
3&7 | 17&0 | 14&-7.0 | C/C=C/c1ccc(C2[C@@H]3CN(C(=O)Nc4ccccc4F)C[C@H]2N3)cc1 (stereo partly drawn)
3 | -1 | -4.1 | CCCNC(=O)Nc1ccc2c(c1)OC[C@@H](C)N(CC1CCCC1)C[C@@H](C)[C@H](OC)CN(C)C2=O
-4 | 0 | 4.1 | CO[C@@H](CN(C)S(=O)(=O)c1cccc(Cl)c1)[C@@H](C)CN([C@@H](C)CO)S(=O)(=O)c1cccc(Cl)c1
8 | 10 | 1.9 | CN(C)C(=O)c1ccc(-c2ccccc2[C@H]2[C@@H](C#N)N(C(=O)C3CC3)[C@H]2CO)cc1
nt | ? | nt | COc1ccc2c3c([nH]c2c1)[C@@H](CO)N(C(=O)C1CCOCC1)CC31CCN(Cc2cccc(F)c2)CC1
0 | 1 | 1.5 | O=C(c1cccnc1)N1C[C@@H]2[C@H](c3ccccc31)[C@H](CO)N2Cc1ccc2c(c1)OCO2
4 | 3 | -1.2 | C/C=C/c1ccc([C@H]2[C@@H](C#N)N(C(=O)c3cccnc3)[C@H]2CO)cc1
0 | -3 | -3.1 | COCCNC(=O)C[C@@H]1CC[C@H]2[C@@H](COC[C@@H](O)CN2Cc2cccc(-c3ccncc3)c2)O1
-4 | 1 | 4.9 | COc1ccc(S(=O)(=O)Nc2ccc3c(c2)C(=O)N([C@H](C)CO)C[C@H](C)[C@@H](CN(C)Cc2ccc(C(F)(F)F)cc2)OCCCC[C@H](C)O3)cc1
0 | 0 | -0.1 | COc1ccc(S(=O)(=O)N(C)C[C@H]2Oc3c(NC(=O)C4CCOCC4)cccc3C(=O)N([C@@H](C)CO)C[C@H]2C)cc1
-1 | 1 | 2.8 | C[C@@H]1CN([C@@H](C)CO)C(=O)CCCn2cc(nn2)CO[C@H]1CN(C)Cc1ccccc1C(=O)O
nt | ? | nt | O=C(C[C@@H]1CC[C@@H]2[C@H](COC[C@H](O)CN2Cc2cccc(C(F)(F)F)c2)O1)NCCc1ccccc1
1 | 3 | 2.2 | C[C@@H]1CN([C@@H](C)CO)C(=O)c2cc(NS(=O)(=O)c3ccccc3)ccc2O[C@@H](C)CCCCO[C@@H]1CN(C)C(=O)C1CCCCC1
-1 | 3 | 3.7 | CC(C)C#Cc1ccc([C@@H]2[C@H]3CN(C(=O)Cc4ccccc4)CC(=O)N3[C@H]2CO)cc1
-17 | -8 | 8.3 | Cc1ccccc1S(=O)(=O)N(C)C[C@H]1OCc2ccccc2-c2ccccc2C(=O)N([C@@H](C)CO)C[C@@H]1C
6 | 5 | -0.9 | COCC(=O)NC[C@@H]1[C@@H](c2ccc(C3=CCCC3)cc2)[C@H](CO)N1C(C)=O
-2 | 1 | 2.3 | CCNC(=O)[C@H]1[C@H](CO)[C@H]2Cn3c(ccc(C4=CCCCC4)c3=O)[C@@H]1N2C(=O)Cc1ccccn1
-6 | -5 | 1.2 | NCC[C@H]1CC[C@H](NS(=O)(=O)c2ccc(Cl)cc2)[C@@H](CO)O1
-1 | 1 | 1.1 | Cc1ccc(S(=O)(=O)N[C@@H]2C=C[C@H](CC(=O)NC3CCCCC3)O[C@@H]2CO)cc1
-1 | -5 | -3.8 | CCC(=O)NC[C@@H]1[C@@H](c2ccc(C3=CCCC3)cc2)[C@@H](CO)N1C(=O)C1CC1
-3 | 1 | 4.5 | COCCNC(=O)C[C@H]1C[C@H]2c3cc(NC(=O)c4cccnc4)ccc3O[C@H]2[C@H](CO)O1
-3 | 0 | 3.1 | C[C@H]1CCCCO[C@H](CN(C)CC2CCCCC2)[C@@H](C)CN([C@@H](C)CO)C(=O)c2cc(NC(=O)CCC(F)(F)F)ccc2O1
-2 | 0 | 2.6 | CNC[C@@H]1Oc2ncc(Br)cc2C(=O)N([C@H](C)CO)C[C@@H]1C
nt | ? | nt | N#Cc1cccc(-c2ccc3c(c2)[C@H]2[C@H](CCN2S(=O)(=O)c2ccccc2)[C@H](CO)N3)c1
7 | 17 | 9.2 | COc1ccc2c3c(n(C)c2c1)[C@H](CO)N(C)CC31CN(S(C)(=O)=O)C1
-10 | -6 | 4.6 | O=C(O)C[C@H]1C[C@@H]2c3cc(NC(=O)Nc4ccccc4)ccc3O[C@@H]2[C@H](CO)O1
-2 | -4 | -2.4 | C[C@@H](O)C#Cc1cnc2c(c1)C(=O)N([C@@H](C)CO)C[C@H](C)[C@@H](CN(C)Cc1cncnc1)O2
2 | -3 | -4.9 | C[C@H]1CN([C@@H](C)CO)C(=O)c2ccccc2-c2ccccc2CO[C@@H]1CN(C)Cc1cccc(F)c1
-3 | 10 | 13 | CCCNC(=O)C[C@H]1C[C@H]2c3cc(NC(=O)C4CCOCC4)ccc3O[C@H]2[C@H](CO)O1
-2 | -6 | -4.2 | COC(=O)C[C@@H]1CC[C@H]2[C@@H](COc3ccc(NC(=O)NC(C)C)cc3C(=O)N2C)O1
-1 | 2 | 3.0 | C[C@H](CO)N1C[C@H](C)[C@H](CN(C)S(=O)(=O)c2cn(C)cn2)Oc2ccc(N(C)C)cc2C1=O
32 | 9 | -23 | CCC(=O)N1CC[C@H]2[C@@H]1c1cc(-c3cccc(F)c3)ccc1N(C)[C@H]2CO
11 | 7 | -4.1 | CN(C)C(=O)c1ccc(-c2ccc([C@@H]3[C@@H](CO)N4CCCCN(CCC(F)(F)F)C[C@H]34)cc2)cc1
-2 | 3 | 4.3 | C[C@@H]1CN([C@H](C)CO)C(=O)CCCn2cc(nn2)CO[C@H]1CN(C)C(=O)Nc1ccccc1C(F)(F)F
3 | -3 | -6.6 | COc1ccc(NC(=O)N2CC(=O)N3[C@H](CO)[C@@H](c4ccc(-c5ccc(C)cc5)cc4)[C@@H]3C2)cc1
3 | 0 | -3.0 | C/C=C/c1ccc2c(c1)O[C@@H](CN(C)Cc1ccc(C(=O)O)cc1)[C@@H](C)CN([C@@H](C)CO)S2(=O)=O
-9 | 4 | 13 | C[C@@H]1CN([C@H](C)CO)C(=O)c2c(c3ccccc3n2C)-c2ccccc2CO[C@H]1CN(C)C
1 | 3 | 2.5 | C[C@@H]1CN([C@H](C)CO)C(=O)c2cc(NS(=O)(=O)c3cccs3)ccc2O[C@@H](C)CCCCO[C@@H]1CN(C)C(=O)CCC(F)(F)F
5 | 8 | 3.2 | CO[C@H]1CN(C)C(=O)c2ccc(NS(=O)(=O)c3ccccc3)cc2OC[C@H](C)N(C(=O)NC(C)C)C[C@H]1C
-2 | -1 | 0.7 | Cc1noc(C)c1S(=O)(=O)Nc1ccc2c(c1)C(=O)N([C@H](C)CO)C[C@H](C)[C@@H](CN(C)Cc1ccc(C(=O)O)cc1)OCCCC[C@@H](C)O2
6 | 0 | -6.7 | O=C(NCC1CC1)[C@@H]1[C@@H](CO)[C@@H]2Cn3c(ccc(/C=C/c4ccccc4)c3=O)[C@H]1N2C(=O)C1CC1
-3 | -3 | -0.2 | O=C1N[C@@H](Cc2ccccc2)COCn2nncc2CC[C@@H]1Cc1ccccc1
4 | 12 | 8.3 | c1ncc(-c2ccc(C3[C@@H]4CN(Cc5cocn5)C[C@H]3N4)cc2)cn1 (stereo partly drawn)
2 | 0 | -1.9 | CC(C)[C@@H]1C(=O)N[C@@H](c2ccc3c(c2)OCO3)C/C=C/C[C@H](C)Oc2ccccc2C(=O)N1C
3 | -3 | -5.7 | COc1cccc(S(=O)(=O)N(C)C[C@@H]2OCc3cn(nn3)CCCC(=O)N([C@H](C)CO)C[C@@H]2C)c1
2 | 2 | 0.0 | CCCNC(=O)C[C@@H]1CC[C@@H]2[C@@H](COc3ccc(NS(=O)(=O)c4ccccc4C)cc3C(=O)N2C)O1

# 3 entries already listed, arranged by number of heavy atoms, ascending.
DUX4 txn inh difference | DUX4 txn inh | DUX4 txn inh control | compound
-6 | -5 | 1.2 | NCC[C@H]1CC[C@H](NS(=O)(=O)c2ccc(Cl)cc2)[C@@H](CO)O1
3&7 | 17&0 | 14&-7.0 | C/C=C/c1ccc(C2[C@@H]3CN(C(=O)Nc4ccccc4F)C[C@H]2N3)cc1 (stereo partly drawn)
-2 | -6 | -4.2 | COC(=O)C[C@@H]1CC[C@H]2[C@@H](COc3ccc(NC(=O)NC(C)C)cc3C(=O)N2C)O1

# Next part
DUX4 txn inh difference | DUX4 txn inh | DUX4 txn inh control | compound
2 | 5 | 2.8 | CN(C)C(=O)C[C@@H]1CC[C@H]2[C@@H](COC[C@@H](O)CN2CC2CCOCC2)O1
0 | 9 | 9.3 | O=C(C[C@H]1CC[C@@H]2[C@H](COC[C@@H](O)CN2C(=O)c2ccncc2)O1)NCc1cc(F)cc(F)c1
2 | 9 | 6.9 | COCC(=O)N1CC2(C1)[C@H](c1ccccc1)[C@@H](CO)N2C(=O)NC1CCCC1
4 | 1 | -3.5 | COc1ccccc1-c1ccc2c(c1)O[C@H](CN(C)CC1CCOCC1)[C@H](C)CN([C@@H](C)CO)S2(=O)=O
1 | 5 | 3.7 | CC(=O)NC[C@H]1[C@@H](c2ccc(-c3ccccc3)cc2)[C@H](CO)N1C(=O)C1CC1
-1 | -3 | -1.3 | COc1ccc(S(=O)(=O)N(C)C[C@H]2Oc3c(NC(=O)c4nc5ccccc5s4)cccc3C(=O)N([C@@H](C)CO)C[C@H]2C)cc1
4 | 4 | -0.4 | CC(=O)Nc1ccc2c(c1)C(=O)N(C)[C@@H]1CC[C@@H](CC(=O)NCc3ccc(Cl)cc3)O[C@@H]1CO2
-1 | -1 | 0.5 | CO[C@H]1CN(C)C(=O)c2cc(NS(C)(=O)=O)ccc2OC[C@H](C)N(CCC(F)(F)F)C[C@H]1C
-2 | 0 | 1.8 | CNC[C@H]1OCCCC[C@H](C)Oc2ccc(NS(=O)(=O)c3cccs3)cc2C(=O)N([C@@H](C)CO)C[C@H]1C
-9 | -5 | 4.2 | Cc1cccc(-c2ccc([C@@H]3[C@H](CO)N4CCCCN(S(=O)(=O)c5ccccc5F)C[C@@H]34)cc2)c1
0 | 1 | 1.1 | C/C=C/c1cnc2c(c1)C(=O)N([C@@H](C)CO)C[C@@H](C)[C@H](CN(C)S(=O)(=O)c1ccc(OC)cc1)O2
4 | 2 | -2.5 | O=C(NC1CCC1)[C@@H]1[C@@H](CO)[C@@H]2Cn3c(ccc(-c4ccncc4)c3=O)[C@@H]2N1CCc1ccccc1
-1 | 0 | 1.6 | COc1ccc(S(=O)(=O)Nc2ccc3c(c2)[C@H]2C[C@H](CC(=O)NCC4CC4)O[C@@H](CO)[C@H]2O3)cc1
-1 | 5 | 5.1 | CN(C)C(=O)C[C@@H]1CC[C@H]2[C@@H](COC[C@@H](O)CN2C(=O)c2ccncc2)O1
1 | 2 | 1.3 | C/C=C/c1ccc([C@H]2[C@H]3CN(C(=O)Nc4ccc(F)cc4)CC(=O)N3[C@H]2CO)cc1
-2 | -1 | 0.4 | CCCC(=O)Nc1ccc2c(c1)C(=O)N(C)C[C@H](OC)[C@H](C)CN(CCC(F)(F)F)[C@H](C)CO2
-4 | -2 | 2.0 | CO[C@H]1CN(C)C(=O)c2cc(NC(=O)Nc3c(C)noc3C)ccc2OC[C@H](C)N(CC2CC2)C[C@@H]1C
-8 | 1 | 8.7 | CCC(=O)N1CC2(C1)[C@@H](c1ccccc1)[C@@H](CO)N2CC1CC1
6 | 9 | 3.0 | CN(C)CCCNC(=O)C[C@H]1CC[C@@H]2[C@H](COC[C@H](O)CN2Cc2cccc(F)c2)O1

# A second format for part of the listing above.
SMILES,DUX4 txn inh difference,DUX4 txn inh,DUX4 txn inh control
C/C=C/c1ccc([C@H]2[C@H]3CN(C(=O)Nc4ccc(F)cc4)CC(=O)N3[C@H]2CO)cc1,1,2,1.3
CN(C)C(=O)C[C@@H]1CC[C@H]2[C@@H](COC[C@@H](O)CN2C(=O)c2ccncc2)O1,-1,5,5.1
COc1ccc(S(=O)(=O)N(C)C[C@H]2Oc3c(NC(=O)c4nc5ccccc5s4)cccc3C(=O)N([C@@H](C)CO)C[C@H]2C)cc1,-1,-3,-1.3

# Screens from PubChem.
